Arbovirus inh = blocks arbovirus infection | arbovirus infection cell-based antiviral screen | inhibition, % at 10 µM | 0.37% of 200,000 active;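 active = inhibition from about 30%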;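 also: bluetongue infection of BSR cells; cell survival read as ATP light after 72 h; 0% = infected wells without compound and 100% = uninfected wells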
RecA splice inh = Mtb RecA intein splicing inhibition | 0.75% of 290,000 active | P9WHJ3 | cell-free RecA intein splicing, fluorescence | inhibition, %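 (about 9 µM by stock and volumes)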 | AID 2221; in the data active = inhibition above about 30%;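 also: 0% = vehicle wells and 100% = reference inhibitor control wells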
Target sequence (P9WHJ3 whole entry, looked up, canonical isoform): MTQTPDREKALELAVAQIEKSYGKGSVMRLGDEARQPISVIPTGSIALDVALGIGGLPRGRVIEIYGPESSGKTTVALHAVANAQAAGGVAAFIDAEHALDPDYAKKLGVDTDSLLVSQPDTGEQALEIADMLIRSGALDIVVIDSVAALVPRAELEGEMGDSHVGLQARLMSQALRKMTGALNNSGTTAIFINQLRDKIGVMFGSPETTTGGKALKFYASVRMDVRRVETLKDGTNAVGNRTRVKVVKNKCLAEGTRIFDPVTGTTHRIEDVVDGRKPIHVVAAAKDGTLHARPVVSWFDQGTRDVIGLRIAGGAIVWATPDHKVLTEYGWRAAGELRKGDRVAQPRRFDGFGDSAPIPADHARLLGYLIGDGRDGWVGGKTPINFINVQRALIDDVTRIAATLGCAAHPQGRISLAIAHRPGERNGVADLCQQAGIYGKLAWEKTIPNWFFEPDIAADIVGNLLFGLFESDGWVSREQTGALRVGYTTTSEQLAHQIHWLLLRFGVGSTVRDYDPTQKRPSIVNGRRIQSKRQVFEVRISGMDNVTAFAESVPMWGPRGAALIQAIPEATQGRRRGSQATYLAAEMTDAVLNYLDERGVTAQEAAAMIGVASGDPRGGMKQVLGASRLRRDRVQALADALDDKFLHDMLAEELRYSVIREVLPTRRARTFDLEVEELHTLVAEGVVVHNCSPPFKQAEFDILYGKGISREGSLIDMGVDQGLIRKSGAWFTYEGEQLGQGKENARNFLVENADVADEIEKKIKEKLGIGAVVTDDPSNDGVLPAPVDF
Mtb H37Rv = M. tuberculosis H37Rv growth inhibitors, H37Rv strain (AID 1626); M. tuberculosis H37Rv growth inhibition; higher % means a stronger effect; inhibition, % at 10 µM; hits with a dose series show IC50 in µM; 0.95% of 220,000 active;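 active = confirmed in a dose series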;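 also: bacteria incubated seven days before Alamar blue readout; 0% = bacteria only wells and 100% = bacteria with antibiotic wells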
YopH PTP inh = inhibitors of Yersinia enterocolitica YopH tyrosine phosphatase. inhibition, %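 (about 10 µM by stock and volumes)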. 0.16% of 140,000 active. fluorescence Ex485/Em525;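 active = inhibition of 50% or more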;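 also: controls were vehicle for no effect and minimum signal wells for full effect; inactives centre near -20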
Mtb bLac sens = beta-lactam sensitization of Mtb H37Rv. M. tuberculosis H37Rv growth with meropenem, percent inhibition; hits of this screen are not shown here. inhibition, % at 25 µM. 0.27% of 330,000 active;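 active = about 74% or more and at least 40 points above the plate without the antibiotic, then above 30% in a dose series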;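 also: growth measured after seven days incubation then overnight dye step; 0% = bacteria only wells and 100% = bacteria with antibiotic; twin plates without the antibiotic show which effects depend on it; some results filed as inactive read as strong as hits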
Arbovirus inh repeat = recorded beside Arbovirus inh, whose call it bears; inhibition, %; measured here: 10K subset replicate screen; many hits read low in the repeat;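 first of two repeat runs on a subset; 0% = infected and 100% = uninfected wells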
* = called active by the depositor; . = no result given. These rows are one share of the data; count on the stated rates, not on these rows.

SMILES | Arbovirus inh | RecA splice inh | Mtb H37Rv | YopH PTP inh | Mtb bLac sens | others
COc1cccc(OC)c1C(=O)NCCN1CCN(C(=O)c2c(OC)cccc2OC)CC1 | 0 | -1.1 | -5% | -101 | 3
CCn1cnc2c(oc3ccccc32)c1=O | -2 | 1.4 | -2% | . | -10
CCOC(=O)C1CCCN(C(=O)C2CCCN(S(=O)(=O)c3ccc4c(c3)oc(=O)n4C)C2)C1 (centres undefined) | -1 | -4.6 | -1% | -6 | -9 | Arbovirus inh repeat=0
Cc1ccc(NS(=O)(=O)c2ccc3c(c2)NC(=O)CO3)c(C)c1 | . | 6.4 | . | . | -5
Clc1ccc(-c2noc(COc3ccccc3)n2)cc1 | -4 | 3.6 | 0% | -20 | -8 | Arbovirus inh repeat=0
CCC(C)[C@H](NC(=O)Nc1ccc(Oc2ccccc2)cc1)C(=O)O (some centres undefined) | 3 | 1.1 | -3% | -13 | -1
CCN(CC)CCN1C(=O)c2oc3ccc(F)cc3c(=O)c2C1c1ccncc1 (centres undefined) | 0 | -3.3 | -2% | . | 11 | Arbovirus inh repeat=6
CC1Cc2ccccc2N1C(=O)CN1C(=O)NC(C)(CCc2ccccc2)C1=O (centres undefined) | . | 3.6 | . | . | 17
Cc1ccc(N2CC(C(=O)Nc3nnc(SCc4ccccn4)s3)CC2=O)cc1 (centres undefined) | . | -4.8 | . | . | 3
COc1ccc(CCNC(=O)C2C3CCC(C3)C2C(=O)O)cc1OC (centres undefined) | . | 0.4 | . | . | -3
O=C(Nc1cc(S(=O)(=O)N2CCOCC2)ccc1N1CCCC1)c1cnccn1 | 1 | 0.3 | -9% | -30 | 2
CCC(=O)c1ccc(OC)c(OC)c1O | . | 1.0 | . | . | 0
COc1cc(C)c(NC(=O)C(=S)N2CCCC2)cc1C | 2 | 3.8 | 2% | . | 1
Cc1ccc(NC(=O)CN2C(=S)NC(C)(C)CC2C)cc1Cl (centres undefined) | 14 | -3.2 | 0% | . | -7
CCCCNC(=O)CCn1c(=O)c2ccccc2n(Cc2ccc(F)cc2)c1=O | 4 | -0.4 | -5% | -38 | 5
COc1ccc(CCNC(=O)C(=O)NCC2OCCN2S(=O)(=O)c2ccc(F)cc2)cc1 (centres undefined) | . | -1.0 | . | . | -1
O=C(NNC(=O)C12CC3CC(CC(C3)C1)C2)c1ccccc1F | . | -2.2 | . | . | -1
CN(C)C1=NC[C@H](Cc2ccccc2)N1CC1CCC(C(C)(C)C)CC1 (some centres undefined) | . | 0.7 | . | . | 34
CCOCCn1c(=O)c2c(nc3n2CC(C)CN3Cc2ccccc2)n(C)c1=O (centres undefined) | . | -2.7 | . | . | -6
COc1cccc(NC(=S)NC(=O)c2cncc(Br)c2)c1 | . | 5.1 | . | . | 0
Cc1cc(C(=O)N/N=C/c2cc(Br)cc([N+](=O)[O-])c2O)c2ccccc2n1 | -1 | 1.0 | 74% | -16 | 3
N#Cc1c(N)n(-c2ccc(N)cc2)c2nc3ccccc3nc12 | . | 3.2 | -4% | . | 2
O=C(Nc1ccc2oc(-c3ccccc3)nc2c1)c1ccncc1 | 1 | 1.0 | 0% | -6 | 66 | Arbovirus inh repeat=4
Cc1ccc(S(=O)(=O)NCCCNS(C)(=O)=O)cc1 | 1 | -1.2 | -8% | 20 | -8
COc1ccc(CNC(=O)c2c(C)cc(=O)oc2C)cc1 | 20 | -4.1 | -1% | . | -4
Cc1cc([N+](=O)[O-])nn1Cc1ccc(C(=O)N/N=C/c2ccc(N(C)C)cc2)cc1 | . | 4.1 | -3% | . | -10
CC(C)(C)NC(=S)Nc1ccc(Nc2ccccc2)cc1 | -22 | 2.2 | -4% | -20 | 7
COc1ccc(C(=O)N/C(=C/c2ccc(Cl)cc2)C(=O)NCc2ccncc2)cc1 | . | 0.1 | . | . | 3
CNC(=O)NC(=O)C(C)OC(=O)c1c(C)noc1C (centres undefined) | -1 | . | -5% | -16 | -5
CCOc1ccccc1OC(C)C(=O)Nc1ccc(S(=O)(=O)N2CCCC2)cc1 (centres undefined) | . | 2.3 | . | . | -8
Nc1nc(Nc2ccccc2)nc(N2CCCC2)c1[N+](=O)[O-] | . | 4.6 | . | . | 33
Cc1ccc(S(=O)(=O)N2CCC(=O)N(CCOCc3cccc(C)c3)CC2)cc1 | -11 | 5.2 | -8% | -11 | -3
CCOc1cc2c(cc1/C=C/C(=O)O)OC(C)C2 (centres undefined) | . | -27 | 4% | . | 6
CCC(=O)Nc1cccc(NC(=S)NC(=O)Cc2ccccc2)c1 | 1 | 0.1 | 10% | -26 | -2
COc1ccc(-c2n[nH]c(=S)n2Cc2ccco2)cc1 | 4 | 16 | 1% | -2 | 2
Cc1ccccc1N1CCN(S(=O)(=O)c2cccs2)CC1 | . | 9.5 | . | . | -2
CCc1nnc(NC(=O)CSc2nnc(CNc3ccc(C)cc3)n2C)s1 | 7 | -0.1 | -3% | . | 3
Nc1c(C(=O)Nc2ccccc2)sc2nc3c(c(-c4ccco4)c12)CCCC3 | -3 | -15 | 6% | -5 | 13
FC(F)Oc1cccc(NC(=S)N2CCN(c3ccccn3)CC2)c1 | 0 | -0.1 | 0% | . | -1
O=C(CSc1nnc(NC(=O)c2ccccc2C(=O)O)s1)Nc1ccccc1Cl | 6 | -1.7 | -9% | . | -4
COC(=O)c1scc(C)c1N/N=C(\C)c1ccc(F)cc1 | 0 | -1.0 | -4% | -16 | -2
COc1ccccc1N(CC(=O)NCCSc1ccccc1)S(=O)(=O)c1ccccc1 | . | 7.9 | . | . | -16
Cc1nn(C)c(C)c1/C=N/NC(=O)CCn1nc(C)c([N+](=O)[O-])c1C | -7 | -2.6 | -20% | -12 | 0
CCC(=O)Nc1ccc(C(=O)CSc2nnc(-c3ccc(O)cc3)n2CC2CCCO2)cc1 (centres undefined) | -1 | 0.6 | 1% | -6 | -8
CCC(C)NCC(=O)Nc1ccc(S(N)(=O)=O)cc1 (centres undefined) | 3 | 0.3 | -4% | . | -6
CCC(C)[C@H](NC(=O)N1CCC(Cc2ccccc2)CC1)C(=O)O (some centres undefined) | . | 1.3 | . | . | 6
CCCCCN(C(=O)CCC(=O)OCc1cccc(Cl)c1)c1c(N)n(CCCC)c(=O)[nH]c1=O | . | -1.7 | . | . | -6
Cc1cc(Cl)nc2ccc(Cc3ccc4nc(Cl)cc(C)c4c3)cc12 | . | -0.6 | 7% | . | 8
CCCCCCC(=O)N/N=C/c1c(O)n(C2CC2)c(=S)[nH]c1=O | . | 1.1 | 14% | . | 3
CS(=O)(=O)Nc1ccc2c3c(cccc13)CC2 | 8 | -0.5 | -1% | -40 | 1 | Arbovirus inh repeat=-3

Going on with the list.
SMILES | Arbovirus inh | RecA splice inh | Mtb H37Rv | YopH PTP inh | Mtb bLac sens | others
OCc1cc(-c2ccccn2)no1 | . | -3.7 | . | . | -8
COc1ccccc1C(=O)NNC(=O)CCC(=O)NCc1ccccc1 | . | -0.9 | . | . | 0
CC(=O)c1ccc(OC(NC(=O)c2ccco2)C(Cl)(Cl)Cl)cc1 (centres undefined) | -2 | 1.6 | -2% | -16 | -2
CCOC(=O)CN=C1CC(C)(C)CC2=C1Sc1ncnc(N(C)C)c1N2 | -2 | -9.1 | -7% | -35 | 22
Cc1cc(Nc2ccc3c(c2)OCCO3)c2ccccc2n1 | -13 | 0.7 | 9% | 13 | 1
CS(=O)(=O)N1N=C(c2cccs2)CC1c1ccc(F)cc1 (centres undefined) | . | 4.0 | 8% | . | 6
Cc1ccc(-n2nc3c(=O)n(C(C)C(=O)NCc4ccc5c(c4)OCO5)nc(C)c3c2C)cc1 (centres undefined) | . | 3.2 | . | . | 1
O=C(Nc1cc(Cl)cc(Cl)c1)C(NCC1CCCO1)c1ccccc1 (centres undefined) | 19 | 6.6 | 5% | 3 | -4
Cc1ccc2cc(C=C(C#N)C#N)c(N3CCCCC3)nc2c1 | 30 | 3.4 | 15% | -13 | -8
Cc1ccc(N2CCCn3c2cc(C)c(C#N)c3=O)cc1Cl | 8 | 5.3 | -7% | 13 | -16

11 entries already listed, arranged by length of the SMILES, high to low:
SMILES | Arbovirus inh | RecA splice inh | Mtb H37Rv | YopH PTP inh | Mtb bLac sens | others
Cc1ccc(-n2nc3c(=O)n(C(C)C(=O)NCc4ccc5c(c4)OCO5)nc(C)c3c2C)cc1 (centres undefined) | . | 3.2 | . | . | 1
CCCCCN(C(=O)CCC(=O)OCc1cccc(Cl)c1)c1c(N)n(CCCC)c(=O)[nH]c1=O | . | -1.7 | . | . | -6
CCOC(=O)CN=C1CC(C)(C)CC2=C1Sc1ncnc(N(C)C)c1N2 | -2 | -9.1 | -7% | -35 | 22
CC(=O)c1ccc(OC(NC(=O)c2ccco2)C(Cl)(Cl)Cl)cc1 (centres undefined) | -2 | 1.6 | -2% | -16 | -2
Cc1cc(Cl)nc2ccc(Cc3ccc4nc(Cl)cc(C)c4c3)cc12 | . | -0.6 | 7% | . | 8
O=C(Nc1cc(Cl)cc(Cl)c1)C(NCC1CCCO1)c1ccccc1 (centres undefined) | 19 | 6.6 | 5% | 3 | -4
CS(=O)(=O)N1N=C(c2cccs2)CC1c1ccc(F)cc1 (centres undefined) | . | 4.0 | 8% | . | 6
Cc1ccc(N2CCCn3c2cc(C)c(C#N)c3=O)cc1Cl | 8 | 5.3 | -7% | 13 | -16
Cc1cc(Nc2ccc3c(c2)OCCO3)c2ccccc2n1 | -13 | 0.7 | 9% | 13 | 1
CS(=O)(=O)Nc1ccc2c3c(cccc13)CC2 | 8 | -0.5 | -1% | -40 | 1 | Arbovirus inh repeat=-3
OCc1cc(-c2ccccn2)no1 | . | -3.7 | . | . | -8

Further structures follow.
SMILES | Arbovirus inh | RecA splice inh | Mtb H37Rv | YopH PTP inh | Mtb bLac sens | others
O=S(=O)(C(=CNc1ccccc1)S(=O)(=O)c1ccccc1)c1ccccc1 | 1 | 5.6 | -7% | -25 | 4
Cc1[nH]c2ccc(Br)cc2c(=S)c1C/C=C/Cl | . | 7.7 | -8% | . | -6
O=C(NC(=S)Nc1ccccc1)c1cncc(C#Cc2ccccc2)c1 | . | . | 10% | . | 26
Cn1cccc1C(=S)N1CCOCC1 | -1 | -0.1 | -8% | -10 | -3
Cc1ccc(S(=O)(=O)N2C(=O)c3cccc4cccc2c34)cc1 | . | -1.6 | -2% | . | -2
Cc1ccnc(SCC(=O)NC2CC2)n1 | . | 1.4 | . | . | -4
Cc1nnc(NS(=O)(=O)c2ccc(Br)cc2)s1 | . | -2.7 | . | . | -5
Cc1nc2ccc(NC(=O)c3ccc(S(=O)(=O)N4CCOCC4)cc3)cc2s1 | 11 | 2.1 | . | 3 | 7 | Arbovirus inh repeat=-4
Cc1cc(=O)[nH]c(Nc2c(C)n(C)n(-c3ccccc3)c2=O)n1 | 0 | 13 | -6% | 13 | -2
C=CCn1c(SCC(=O)NC)nnc1C12CC3CC(CC(C3)C1)C2 | . | -0.9 | . | . | -4
CCOC(=O)c1ccc(N=C2SC(C(=O)NCCc3ccccc3)CC(=O)N2C)cc1 (centres undefined) | -5 | 1.4 | 6% | . | 1
O=C(NCCCC(=O)N1CCCCC1)c1ccc(Cl)cc1 | . | -0.9 | . | . | 2
CCCCN(C)C(=O)c1cc2cc([N+](=O)[O-])cc(OC)c2oc1=O | 6 | 0.9 | -2% | . | 0
CCCCNC(=S)NNC(=O)C1=NN(c2cc(C)ccc2C)C(=O)CC1 | . | 2.1 | . | . | 0
CCOc1ccc(CCNC(=O)COc2cccc(-n3cnnn3)c2)cc1OCC | . | 1.2 | . | . | -13
O=C(Cc1ccc(F)cc1)Nc1c2c(nn1-c1cccc(Cl)c1)CS(=O)C2 (centres undefined) | -1 | 2.1 | 0% | 25 | -3
COc1cccc(CNC(=O)C2CCC(CNS(=O)(=O)c3cccc4nsnc34)CC2)c1 (centres undefined) | 2 | 7.4 | 5% | -49 | -12
CC(C)N1C(=O)CCC1C(=O)N1CCC(Cc2ccccc2)CC1 (centres undefined) | 1 | -0.3 | . | -31 | 7 | Arbovirus inh repeat=3
COC(=O)c1sccc1N/N=C/c1ccc(OC)c(OC)c1OC | -5 | 0.5 | 4% | -26 | 13
CCCCn1c(N)c(N(CC(C)C)C(=O)CC(NC(=O)c2ccccc2)c2ccccc2)c(=O)[nH]c1=O (centres undefined) | . | 0.8 | . | . | -5
Cc1cccc(N2CCN(S(=O)(=O)c3ccc4c(c3)n(C)c(=O)c(=O)n4C)CC2C)c1 (centres undefined) | -3 | 1.3 | -25% | -32 | 8
Cc1cccc(NC(=O)CNC(=O)C23CC4CC(CC(Cl)(C4)C2)C3)n1 | . | 1.5 | . | . | -15
COc1ccc(N(CC(=O)Nc2cc(C)cc(C)c2)S(=O)(=O)c2ccccc2[N+](=O)[O-])c(OC)c1 | -1 | 1.3 | -3% | . | 2
CC1=C(C(=O)Nc2cc(C(=O)N3CCN(c4cccc(C)c4C)CC3)ccc2C)SCCO1 | . | 13 | . | . | 10
Cc1ccc(NC(=O)NC2=N/C(=C(/C#N)C(=O)N3CCCC3)c3ccccc32)cc1 | . | -0.2 | 8% | . | 16

From PubChem
